Compound activity: PubChem BioAssay, ICCB-Longwood Screening Facility, Harvard Medical School
Sa helicase inh – blocks Staphylococcus aureus DNA helicase | purified S. aureus helicase, fluorescence unwinding assay; about half of the hits fall short of the stated cut | inhibition, %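 (tested at about 80 µM)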 | 120,000 compounds, 0.05% hits;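 active = both duplicates at 50% or more, or one of them with a favoured structure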;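 note: 0% = mean of negative control wells and 100% = mean of positive control wells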
MgrA DNA FP – alters Staphylococcus aureus MgrA binding to DNA. fluorescence polarization. inhibition, %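 (about 10 µg/mL by stock and volumes)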. 84,000 compounds, 0.13% hits. AID 602314;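 active = above 50% in either of two replicates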;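 note: 0% = protein plus DNA without compound and 100% = DNA alone without protein; higher means less MgrA bound to DNA so lower polarization; one replicate is shown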
* = called active by the depositor; . = not tested or not shown. These rows are one share of the data (hit frequency here may not be typical).

No.	Sa helicase inh	MgrA DNA FP	SMILES
1	2	.	Cc1cc2nc(N3CCN(c4ccccc4)CC3)c3ccccc3n2n1
2	1	0.6	O=C(CNS(=O)(=O)c1ccccc1)NCc1ccccn1
3	-6	.	O=C(CSc1ncccn1)N1CCN(S(=O)(=O)c2ccc(Cl)cc2)CC1
4	16	-0.8	CSc1ccc(Cl)c(C(=O)N2CCc3ccccc32)c1
5	30	.	O=C(C1CCCN(S(=O)(=O)c2cccc3nonc23)C1)N1CCc2ccccc2C1 (stereo not drawn)
6	-17	.	C=CCn1c(SCC(=O)O)nnc1-c1ccc(OC)c(OC)c1
7	6	5.8	COc1ccc(COC(=O)N/N=C/c2ccco2)cc1
8	-22	.	Cc1c(C(=O)N2CCCC2)oc2c1-c1nn(CC(=O)O)cc1CC2
9	.	-0.7	CC(C)C1=CC23CCC4C(C)(C(=O)O)CCCC4(C)C2CC1C1C(=O)N(c2ccc(S(N)(=O)=O)cc2)C(=O)C13 (stereo not drawn)
10	-19	.	Cc1ccc(S(=O)(=O)N2CCCC(C(=O)N(C)c3ccccc3)C2)cc1 (stereo not drawn)
11	-1	2.5	Cc1ccccc1NC(NC(=O)c1ccco1)C(=O)c1ccccc1 (stereo not drawn)
12	24	.	Cc1cccc(NC(=O)CN2N=C(c3ccccc3)CCC2=O)c1C
13	4	-1.1	Cc1cc2ccccc2c(=O)n1CC(=O)Nc1ccc(C(C)C)cc1
14	-8	.	CC(OC(=O)C1COc2ccccc2O1)C(=O)N1CCc2ccccc21 (stereo not drawn)
15	3	.	CCc1ccc2c(CN3CCN(S(=O)(=O)c4ccc5c(c4)OCCO5)CC3)cc(=O)oc2c1
16	.	-0.7	CCc1nnc(NS(=O)(=O)c2ccc(OC(F)(F)F)cc2)s1
17	5	.	C=CCn1cnnc1SC(C)C(=O)N(CC)c1cccc2ccccc12 (stereo not drawn)
18	.	-2.5	COc1cc(OC)cc(-c2nc3ccccc3c(=O)n2NC(=O)c2ccc(OC)c([N+](=O)[O-])c2)c1
19	14	-1.7	CC(=O)Nc1cc(C)nn1-c1nc2ccccc2n1C
20	.	1.2	CC1=NNC(=O)C1Cc1ccc(F)cc1 (stereo not drawn)
21	11	.	COc1ccc2c(c1)c1nc(SC)n(CCO)c(=O)c1n2C
22	8	-0.6	CCN(CCCN)c1ccccc1
23	4	-2.4	COc1ccc(C2C3=C(CC(c4ccco4)CC3=O)Nc3ncnn32)cc1 (stereo not drawn)
24	-36	-2.5	ClCc1csc(Nc2ccccc2)n1
25	-17	.	COc1ccc(-c2nnc(SCC(=O)c3ccccc3)o2)cc1
26	.	-3.2	N#CCS(=O)(=O)c1ccco1
27	17	.	COc1ccccc1CN(C)C(=O)CSc1nc(C)c(C)n1C1CCCC1
28	13	.	COC(=O)C12CC3CC(CC(N)(C3)C1)C2
29	-3	.	O=C(CN1C(=O)c2ccccc2C1=O)N1CCCCCC1
30	3	0.7	CC(C)c1nc2cc3sc(C(C)C)nc3cc2s1
31	19	2.1	C=CCc1ccccc1OCc1cccc(C(=O)O)c1
32	3	.	CC(=O)Nc1ccc(-n2nncc2-c2ccccc2)cc1
33	.	-0.7	O=[N+]([O-])c1ccc(Nc2nc(OCC(F)(F)C(F)F)nc(OCC(F)(F)C(F)F)n2)cc1
34	6	-0.4	COc1ccc(N2CCN(C(=O)CCCC(=O)c3ccccc3)CC2)cc1
35	-18	-0.7	CC1CCC(C(C)C)C(OCC(O)CN2CCN(c3ccccc3)CC2)C1 (stereo not drawn)
36	.	-1.8	COc1ccc2ccc(OC)c(/C=c3\sc4n(c3=O)C(c3ccccc3OC)C(C(C)=O)=C(C)N=4)c2c1 (stereo not drawn)
37	.	-0.8	COC(=O)CNC(=O)c1ccncc1Br
38	6	.	Cc1ccc(-c2ccc(=O)n(CC(=O)N3CC(C)CC(C)C3)n2)cc1 (stereo not drawn)
39	.	-2.5	COc1cccc(Nc2nc(C)c([N+](=O)[O-])c(Nc3cccc(OC)c3)n2)c1
40	-8	.	O=C(Nc1nncs1)c1cc2c(s1)CCC2
41	-4	.	CC1(C)C2CCC1(C)C(NC(=O)CCC(=O)O)C2 (stereo not drawn)
42	0	.	Cc1cc(NC(=O)COc2ccc3oc4ccccc4c3c2)no1
43	-3	.	O=C(NCc1ccco1)c1noc2c1CCc1ccccc1-2
44	-8	.	Cc1cccc(-n2nnnc2SCC(=O)N2CC(C)OC(C)C2)c1 (stereo not drawn)
45	-1	.	O=C(COC(=O)c1cc[n+]([O-])cc1)c1ccc2[nH]c(=O)[nH]c2c1
46	0	-2.0	CC(C)C(=O)N1CCN(c2ccc(NC(=O)c3ccccc3)cc2)CC1
47	-43	.	Cc1ccc(S(=O)(=O)NNC(=S)Nc2ccccc2)cc1
48	-16	.	COc1ccccc1C(=O)CC#N
49	12	.	COc1ccc(-n2c(C)cc(C(=O)COc3ccc(-n4cnnn4)cc3)c2C)cc1
50	-10	.	O=C1c2ccccc2C(=O)N1CCCCSc1nnc(-c2ccc(OC(F)F)cc2)o1
51	2	.	CCN(Cc1ccncc1)Cc1c(O)ccc2ccccc12
52	9	.	Cc1nn(-c2ccccc2)c(C)c1CN(C)CC(=O)Nc1ccccc1C#N
53	7	0.5	COc1ccc(NC2CC(O)C(CO)O2)cc1 (stereo not drawn)
54	23	-15	COc1cc2[nH]c(=O)c(C(=O)NCCN3CCNCC3)c(O)c2cc1OC
55	13	-0.8	COC(=O)c1ccc(NCC(O)Cn2nnnc2-c2ccccc2)cc1 (stereo not drawn)
56	-13	.	COc1ccccc1-c1cc2nc(C)c(CCC(=O)Nc3ccc4c(c3)OCCO4)c(C)n2n1
57	1	-1.5	CCOc1ccc(N2C(=O)CCC2=O)cc1
58	-9	.	COc1cccc(-c2nn(Cc3ccccc3)cc2C(=O)N(C)CC(=O)NCc2ccco2)c1
59	-11	0.3	c1ccc(OCc2cc(-c3ccccc3)n[nH]2)cc1
60	-3	.	COc1ccc(-c2csc(C3=C(O)CN(CC(C)(C)CN(C)C)C3=N)n2)cc1OC

Carrying on.
No.	Sa helicase inh	MgrA DNA FP	SMILES
61	1	.	Cc1cc(C(=O)CN2C(=O)NC(Cc3c[nH]c4ccccc34)C2=O)c(C)n1C (stereo not drawn)
62	-10	.	N#CCCn1c(SCC(=O)Nc2ccc(S(=O)(=O)N3CCCCC3)cc2)nc2ccccc21
63	-5	.	CN(Cc1nc2ccccc2c(=O)[nH]1)C(=O)COc1ccc2c(c1)CCC2
64	22	.	O=C(NCC1CC1)Nc1ccccc1F
65	7	.	COCCn1c(C)cc(C(=O)CSc2nc(C)c(C)n2C2CCCCC2)c1C
66	.	-1.9	Fc1ccc(C2=NN(c3ccccc3)C(c3ccc(F)cc3)C2)cc1 (stereo not drawn)
67	2	-1.2	COC(=O)N1N=C(C)CC1(O)c1ccc(Cl)cc1 (stereo not drawn)
68	-13	.	O=C(OCc1cc(Cl)cc2c1OCOC2)c1c[nH]c2ccccc12
69	16	-0.8	O=C1CCCS(=O)(=O)CC1
70	2	3.2	Cc1ccc2oc(-c3cccc(Br)c3)nc2c1
71	9	.	CCCOc1cccc2c1CCN(Cc1ccccc1)C2=O
72	.	1.1	O=C(CCc1ccccc1)Nc1ccc2c(c1)C(=O)OC2
73	.	16	Cn1sc(=O)c2ccc(S(=O)(=O)NCCc3ccncc3)cc21
74	8	-6.2	COc1cccc(C2C3CN(C(C)=O)CC=C3C(C#N)=C(N)C2(C#N)C#N)c1 (stereo not drawn)
75	-1	0.1	CC(C)NC(=O)COc1ccc(S(=O)(=O)N(C)Cc2ccccc2)cc1
76	-1	0.3	CCc1ccccc1N/C=C(\C#N)c1nc2ccccc2[nH]1
77	12	.	N/C(COc1cccc(C(F)(F)F)c1)=N\O
78	5	.	COCC(C)n1c(COc2ccccc2F)nn(CN2CCN(c3ccc(O)cc3)CC2)c1=S (stereo not drawn)
79	-9	.	O=C1OCC(c2ccccc2)=C1c1ccc(S(=O)(=O)N2CCOCC2)s1
80	27	1.7	COC(=O)CN(c1ccc(C(C)C)cc1)S(C)(=O)=O
81	17	-8.3	CCCC(=O)Nc1ccc(Br)cc1
82	11	.	COc1cc(/C=N/S(=O)(=O)CCc2ccccc2)ccc1O
83	17	.	CCN(CC)S(=O)(=O)c1ccc(C(=O)N2CCc3ccccc32)cc1
84	0	.	CN(C)S(=O)(=O)c1ccc2oc3nnc(SCc4ccccc4)n3c2c1
85	-25	.	CCOC(=O)Cn1nc(C(F)(F)F)c(Cl)c1C
86	-11	.	O=c1nc2s/c(=C\c3ccco3)c(=O)n2nc1Cc1ccccc1
87	.	3.5	Cc1cc(C)c(NC2=NC(CO)(CO)CS2)c(C)c1
88	-13	.	CCOC(=O)c1ccc(S(N)(=O)=O)o1
89	-3	-1.5	CCOc1ccc(C(=O)N2CCCCC2)cc1
90	3	.	COc1ccc(Nc2nc(=O)[nH]nc2C)cc1
91	-47	.	O=c1[nH]c(O)c(C=NCCSCc2cccs2)c(=O)[nH]1
92	.	-1.6	O=C(Cc1n[nH]c(=O)c2ccccc12)NCCO
93	.	-3.2	CCOC(=O)c1c(C)n(-c2ccccc2)c2ccc(OC(=O)c3ccc(C(=O)c4ccccc4)cc3)cc12
94	-11	0.1	CCc1ccc(NC(=O)c2cnc(SC)nc2C)cc1
95	-29	.	CCCc1cc(C(=O)Nc2cccc(C(F)(F)F)c2)no1
96	-92	.	O=C(c1ccc2nc(/C=C(\O)c3ccc(Cl)cc3)c(=O)[nH]c2c1)N1CCN(c2ccco2)CC1
97	-4	-1.2	COc1ccc(Nc2oc(-c3ccccc3)nc2C#N)cc1
98	7	.	Cc1cc(Cl)ccc1OCC(=O)N1N=C(C(F)F)CC1(O)C(F)F (stereo not drawn)
99	-25	1.8	CC1CC2(C)Oc3ccccc3C3OCC1(CO)C(C)C32 (stereo not drawn)
100	-6	0.0	COc1ccc2ccccc2c1C=C1C(=O)OC2(CCCC2)OC1=O
101	.	-2.2	Brc1ccc(-c2cn3ccsc3n2)cc1
102	-5	.	Nn1cc(-c2ccccc2)nc1SC(F)F
103	9	-2.0	Cc1cc2ccccc2c(=O)n1CC(=O)N1CCCCC1
104	22	-0.3	CCc1ccc(NC(=O)Cc2cccs2)cc1
105	14	-2.3	CNCC(O)COc1cccc(OC)c1 (stereo not drawn)
106	13	3.0	CSc1ccccc1NS(=O)(=O)c1ccccc1
107	16	-1.0	CN(Cc1ccccc1)C(=O)CN(C1CCCCC1)S(C)(=O)=O
108	.	3.8	CCOC(=O)c1c(-c2ccc(Br)cc2)csc1/N=C/c1c(C)[nH]n(-c2ccccc2)c1=O
109	.	-0.4	COC(=O)Cc1cc(=O)n2[nH]c(C(F)(F)F)c(-c3ccc(Br)cc3)c2n1
110	25	-2.8	C[n+]1ccc(/C=C/c2ccccc2F)c2ccccc21
111	8	0.9	Cc1ccc2sc(NC(=O)/C=C/C(=O)O)nc2c1
112	.	-0.7	O=C(Nc1ccccc1C(=O)O)c1ccc(Cl)cc1
113	-12	.	O=C(COc1ccc(-n2cnnn2)cc1)NC(=O)NCc1ccccc1
114	-4	7.3	N=C1c2ccccc2C(=O)C1c1ccccc1 (stereo not drawn)
115	24	-1.7	COc1cc(NC(=O)CSC)cc(OC)c1
116	-2	1.1	CC1CCC(NC(=O)C2CCCN2S(=O)(=O)c2ccc3nc(-c4ccccc4)[nH]c3c2)CC1 (stereo not drawn)
117	-8	-0.2	CN(C)C(=S)SCC(=O)Nc1ccccc1
118	10	1.0	c1ccc(Nc2ncnc3sc4c(c23)CCCC4)cc1
119	-9	.	CC(C)C(NC(N)=O)C(=O)Nc1cccc2ncccc12 (stereo not drawn)
120	11	0.9	COc1ccc(N(C(=O)c2ccccc2)S(=O)(=O)c2cccc3cccnc23)cc1

Next section.
No.	Sa helicase inh	MgrA DNA FP	SMILES
121	-11	.	CC(NC(=O)COc1ccc(-c2nnco2)cc1)c1ccc(Cl)cc1Cl (stereo not drawn)
122	1	.	CCN1CCN(CCCN)CC1
123	16	.	CCN1CCN(c2ccc(N3CCN(C(=O)c4ccc(C(F)(F)F)cc4)CC3)nn2)CC1
124	8	.	N=c1sccn1CC(=O)NCCc1ccc(Cl)cc1Cl
125	14	.	Cc1ccc(-c2csc(N/N=C/c3ccco3)n2)cc1
126	8	.	O=C(NC1CC1)c1cncc(Br)c1
